Screening data from PubChem.
gsp agonist – agonists of gsp mutant (McCune-Albright syndrome); gsp mutant cells, cAMP HTRF, 30 min; control for the full effect not named in the record; Potency, µM (top dose mostly 76.9 µM), for inactives: at the top dose activation (cAMP increase), most hits filed as activators; 340,000 compounds, 0.13% hits; AID 624287; active = well fitted activation curve with a large enough effect; inconclusive = small, poorly fitted or top-dose-only effect, or another doubt; inactive = no such curve, though single readings can be large or run the other way; cell line not stated here;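 note: phosphodiesterase inhibitor Ro 20-1724 added with compounds to block cAMP breakdown; potency is the fitted concentration of half-maximal effect; nearly all actives have a fitted effect of over 60% in size; about a fifth of the inactives were tested at one dose only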
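Cells stably selected in G418 were plated at 2000/well, grown 16-24 hr, then given compounds in DMSO with the PDE inhibitor […] (300 uM solution added) for 30 min at 37C; cAMP was read by HTRF.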
Menin-MLL FL inh – displaces fluorescein MLL peptide from human menin. Fluorescence polarization, fluorescein-MLL peptide displacement from menin. 290,000 tested, under 10 active. FP activity change, % at 61.4 µM; inconclusive = falling polarisation curve, or a change in total fluorescence; inactive = total fluorescence flat and polarisation flat or rising; no compound was filed as active; the % refers to the polarisation; negative = inhibition;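 note: % of control where 0% means no effect; inhibitors lower the polarisation; unlabelled MLL peptide was the positive control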
ClpP mod – qHTS Assay for Activators of ClpP. ATP-dependent Clp protease proteolytic subunit (Bacillus subtilis (strain 168)), P80244. purified B. subtilis ClpP, FRET peptide cleavage, 20 min. Potency, µM (series often up to 57.5 µM), for the others: top-dose activity change, negative = active. 340,000 compounds, 1.9% hits. AID 651965, 2013; active = well fitted falling curve with a large enough effect; inconclusive = small, poorly fitted or top-dose-only effect; inactive = no such curve, though single readings can be large or run the other way; note: potency is the fitted concentration of half-maximal effect; the source files actives as falling curves though it sought activators and does not explain the sign; nearly all actives have a fitted effect of over 65% in size; many hits overshoot -100%
Target sequence (P80244 whole entry, looked up): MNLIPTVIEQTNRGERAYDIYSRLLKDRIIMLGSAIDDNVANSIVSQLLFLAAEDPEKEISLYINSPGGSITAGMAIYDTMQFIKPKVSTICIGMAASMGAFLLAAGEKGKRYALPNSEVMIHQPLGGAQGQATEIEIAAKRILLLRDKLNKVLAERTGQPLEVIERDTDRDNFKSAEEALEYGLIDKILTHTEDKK
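Buffer: 100 mM Tris/HCl pH8, 100 mM KCl, 0.05% low protease BSA, 2.5% glycerol, 0.01% Tween-20. ClpP 10 microg/mL final; 20 min RT; delta FRET normalized to ADEP and DMSO controls.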
TRPML1 blocker – blocks the human TRPML1 channel; activity change, negative = inhibition, % (concentration not given with the values); TRPML1-inducible cells, Ca2+ dye fluorescence, FDSS; stronger effect = lower value; inhibition of EC80 agonist-evoked calcium signal; 390,000 compounds, 0.02% hits; Q9GZU1; in the data active means activity change below about -50%; inconclusive means about -30% to -50%; inactive means above about -30%;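 note: stimulus is agonist 54-4 at its EC80 concentration; % is set by controls: 0 for no effect and ±100 for the full control effect; the text of the record puts the active cut at -80%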
Target sequence (Q9GZU1 whole entry, looked up): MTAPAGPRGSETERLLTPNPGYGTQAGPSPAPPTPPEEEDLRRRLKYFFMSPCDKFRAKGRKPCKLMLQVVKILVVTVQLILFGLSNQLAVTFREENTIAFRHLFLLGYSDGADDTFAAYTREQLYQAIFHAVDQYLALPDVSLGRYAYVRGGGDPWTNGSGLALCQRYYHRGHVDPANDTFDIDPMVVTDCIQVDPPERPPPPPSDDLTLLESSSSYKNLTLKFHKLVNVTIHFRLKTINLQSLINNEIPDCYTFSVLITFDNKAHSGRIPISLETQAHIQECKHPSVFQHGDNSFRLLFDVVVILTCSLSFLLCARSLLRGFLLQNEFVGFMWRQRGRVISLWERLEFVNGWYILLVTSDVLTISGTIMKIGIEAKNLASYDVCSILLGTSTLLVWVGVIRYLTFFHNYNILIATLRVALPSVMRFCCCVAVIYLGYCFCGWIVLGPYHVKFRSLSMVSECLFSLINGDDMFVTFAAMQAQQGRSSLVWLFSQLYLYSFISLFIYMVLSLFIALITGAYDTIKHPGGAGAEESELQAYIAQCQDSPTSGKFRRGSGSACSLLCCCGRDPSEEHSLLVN
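Tet-induced TRPML1-DL cells loaded with Ca8 no-wash calcium dye were read kinetically on FDSS. Compound addition was followed by EC80 agonist 54-4 (4 uM final); inhibition was read over 110 s.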
TRPML1 ag – agonists of human TRPML1 channel; AID 624414; 410,000 compounds, 0.12% hits; Q9GZU1; activation, % (concentration not given with the values); TRPML1-expressing cells, Ca2+ dye fluorescence, FDSS; host cell line not named in the record; reference of the full effect not given here; in the data active = activation above about 50%; inconclusive = about 30% to 50%; inactive = below about 30%; note: 0% is about no effect; the text of the record puts the active cut at 80%
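Cells: TRPML1-DL, 1X Tet inducer, ~16 h at 37 degrees C/5% CO2. Dye: ABD Ca8 no-wash + quencher, 45-90 min RT. Read: 10 s baseline, compound add, 110 s agonist phase; 54-4 EC80 (4uM final), 110 s antagonist phase.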
gsp antag – antagonists of gsp mutant (McCune-Albright syndrome); gsp-mutant cells, cAMP HTRF, 30 min; control for the full effect not named in the record; Potency, µM (top dose mostly 76.9 µM), for inactives: at the highest dose activity change, negative = inhibition, usual class: inhibitors; 340,000 compounds, 0.4% hits; AID 624288; active = falling curve of any shape with a large fitted effect; inconclusive = falling curve, mostly with a smaller effect; inactive = flat or rising curve; cell line not stated here;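 note: intracellular cAMP measured with PDE inhibitor Ro 20-1724 present during compound exposure; potency is the fitted concentration of half-maximal effect; % is set by controls: 0 for no effect and ±100 for the full control effect; nearly all actives have a fitted effect of over 65% in size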
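Cells in G418 medium, seeded 16-24 h, 37C; buffer exchange to DPBS + 1 mM CaCl2, 0.5 mM MgCl2, 0.05% BSA; cpds in DMSO + […] (300 uM stock), 30 min 37C; HTRF cAMP detection.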
Active calls of the source: *; ? = inconclusive; nt = no result given; & = joins results of further samples; [ ] = another dose, or the depositor's remark.

Structure	gsp agonist	Menin-MLL FL inh	ClpP mod	TRPML1 blocker	TRPML1 ag	gsp antag
COc1cccc(C(=O)CC(=O)C(=O)Nc2cccc([N+](=O)[O-])c2C)c1	-8.1%[15.4 µM]	2.2	nt	-0.1	-0.7	-5.2%
N#CC(c1cccc(Cl)c1)c1ccc2c(C(F)(F)F)cc(C(F)(F)F)nc2n1 (configuration not stated)	-5.4%	?	-1.9%	-16.2	2.1	?
CC(=O)Nc1ccc(S(=O)(=O)Nc2ccccn2)cc1	-23.8%[15.4 µM]	-0.6	nt	-12.0	1.4	7.2%
CN(C)CCCNc1nc(N)c([N+](=O)[O-])c(NCCO)n1	24.7%	0.6	nt	11.5	0.5	5.7%
O=C(Cn1cnc(S(=O)(=O)N2CCCC2)c1)Nc1cccc(F)c1	-8.7%	nt	3.6%&1.2%	13.7&10.0	-0.2&-0.1	13.1%
O=C(NCc1cccnc1)c1cccc(S(=O)(=O)N2CCCC2)c1	13.5%[15.4 µM]	-4.8	nt	-11.8	-0.1	21.7%
COc1cccc(N(C(=O)Cn2nnc(-c3ccc(C)o3)n2)C(C(=O)NC2CCCC2)c2ccncc2)c1 (configuration not stated)	5.4%[15.4 µM]	-1.3	nt	-11.8	0.6	-2.4%
COc1ccc(S(=O)(=O)N[C@@H](Cc2ccc(Cl)cc2)C(=O)N2CC[C@@]3(O)CCCC[C@H]3C2)cc1	?	2.1	-1.9%	-12.4	-0.5	-8.0%
Cc1ccc(CNC(=O)Cc2cccs2)cc1	-59.8%[inhibitor]	3.4	1.2%	9.0	-0.4	6.7%
Cc1ccc(CNS(=O)(=O)c2cccc3nsnc23)cc1	-0.2%[15.4 µM]	-6.9	nt	-2.6	-0.8	4.2%
O=C(CSc1nnc(-c2ccncc2)o1)Nc1ccc(F)c(F)c1	-40.5%[inhibitor]	nt	-1.7%	1.3	0.2	0.7%
COc1ccc([N+](=O)[O-])cc1NCC(=O)Nc1cc(S(=O)(=O)N2CCCCC2)ccc1C	?	nt	0.2%	9.7	-0.7	?
O=C(Nc1cccc(NC(=O)c2ccc(F)cc2)c1)c1ccc(F)cc1	-41.5%[inhibitor]	9.5	-2.2%	nt	nt	4.0%
Cc1ccccc1-n1c(C)nnc1SCC(=O)N1CC(=O)Nc2ccccc21	-24.9%	1.2	1.0%	5.7	0.3	-11.0%
CC1=NN(c2ccc(C)cc2C)C(=O)C1C(c1ccccc1)C1C(=O)N(c2ccc(C)cc2C)N=C1C (configuration not stated)	51.7%	-0.2	-0.1%	-25.9	0.8	3.2%
COc1ccc(/C=C/C(=O)NC(=S)NNC(=O)c2cccnc2)cc1OC	-6.3%	2.3	-1.2%	6.1	2.4	4.2%
FC(F)(F)c1cnc(COc2ccc(Cl)cc2Cl)c(Cl)c1	-0.1%[15.4 µM]	2.2	0.2%	2.4	0.1	12.2%
C[C@@]12CCC=C[C@H]1[C@H](c1ccc3ccccc3c1Br)N(Cc1ccccc1)C2=O	-40.1%	-0.1	-5.3%	67.6	0.6	-18.0%
CCC(=O)N1CCc2cc(S(=O)(=O)N3CCN(c4ccccc4Cl)CC3)ccc21	4.6%	nt	-1.9%	-4.5	-0.8	16.1%
Cc1cc(NC(=O)c2cc(C)on2)no1	2.7%	1.9	0.2%	7.2	-0.2	-1.0%
Cc1ccc(NC(=O)CSc2nnc3ccc(-c4cccnc4)nn23)cc1	28.8%[15.4 µM]	nt	nt	0.7	-0.3	2.9%
COc1ccc(CCNC(=O)CSc2nc3ccccc3nc2Cc2ccc(C)cc2)cc1OC	nt	nt	-3.5%	7.8	-0.7	nt
Cc1ccc(C(=O)NNC(=O)c2ccc(NS(=O)(=O)c3cccs3)cc2)o1	-24.4%	nt	-0.3%	-2.6	-0.3	14.6%
O=C1Nc2cc(Cl)c(Cl)cc2N(O)N1c1ccccc1	-28.1%	-1.9	-1.1%	9.3	0.5	-1.8%
C=CCNCCOc1ccc(C(C)(C)c2ccccc2)cc1	-3.7%[15.4 µM]	-2.4	-1.1%	-9.2	0.5	15.3%
COc1ccc(Nc2cc(C)nc(-n3nc(C)cc3C)n2)cc1Cl	nt	nt	-6.3%	7.4	-1.1	nt
CC(C)C(=O)Nc1c2c(nn1-c1ccc([N+](=O)[O-])cc1)CS(=O)(=O)C2	?	2.0	nt	2.7	0.2	2.4%
Cc1cccc(Cn2c(=O)n(CCc3ccccc3)c(=O)c3sc4ccccc4c32)c1	nt	nt	-21.9%	4.9	0.4	nt
Cc1[nH]n(C(N)=S)c(=O)c1N=Nc1cc(C(F)(F)F)ccc1Cl	9.5%[15.4 µM]	3.9	-3.3%	3.3	-0.5	-4.7%
Clc1ccc(CON/C=N/c2ncnc3sccc23)c(Cl)c1	-2.2%	-0.3	-2.4%	-6.7	0.2	-19.4%
O=S(=O)(Nc1ccc(Cl)c(Cl)c1)N1CCOCC1	-4.8%	2.1	-0.1%	5.4	-0.4	-1.1%
CCCC(C(=O)NC1CCCCC1)N(CC1CCCO1)C(=O)CNS(=O)(=O)c1ccc(F)cc1 (configuration not stated)	7.9%	6.9	-1.2%	16.6	-0.2	3.8%
CCCOn1nnnc1-c1ccccc1	34.4%	0.7	-1.5%	-9.6	0.6	0.1%
COc1cccc(C(=O)NCC(c2ccc3c(c2)OCO3)N2CCN(C)CC2)c1 (configuration not stated)	nt	nt	0.8%	7.2	0.0	nt
CCCN1CCN(CCCNC(=O)C2CCN(c3nnc(-n4cccc4)s3)CC2)CC1	?	0.8	-1.8%	-2.1	-0.5	4.8%
CSc1ccc(Cl)c(C(=O)Nc2ccc(OCC(N)=O)cc2)c1	15.3%	-1.1	-2.5%	19.3	0.6	-2.3%
COc1ccc(C(=O)OCC(=O)N(C)C2CCS(=O)(=O)C2)cc1S(=O)(=O)N(C)Cc1ccccc1 (configuration not stated)	-68.4%[inhibitor]	nt	?	-20.7	0.3	7.6%
CCOc1ccc(/C=C(\C(=O)O)c2ccc(S(=O)(=O)N3CCCCC3)s2)cc1OC	-11.1%	nt	-3.8%	16.7	0.0	-17.3%
COc1ccc(CSc2nnc(N)s2)cc1F	24.3%	7.4	1.3%	-14.1	-0.7	5.0%
C/C(N)=C(/C#N)C(=O)COc1ncnc2ccc(Br)cc12	-51.0%[inhibitor]	3.5	-0.4%	10.9	0.1	3.3%

Whole records as entered above.
CCCC(C(=O)NC1CCCCC1)N(CC1CCCO1)C(=O)CNS(=O)(=O)c1ccc(F)cc1 (configuration not stated) is listed as gsp agonist = 7.9%; Menin-MLL FL inh = 6.9; ClpP mod = -1.2%; TRPML1 blocker = 16.6; TRPML1 ag = -0.2; gsp antag = 3.8%
CCCOn1nnnc1-c1ccccc1 is listed as gsp agonist = 34.4%; Menin-MLL FL inh = 0.7; ClpP mod = -1.5%; TRPML1 blocker = -9.6; TRPML1 ag = 0.6; gsp antag = 0.1%
CSc1ccc(Cl)c(C(=O)Nc2ccc(OCC(N)=O)cc2)c1 is listed as gsp agonist = 15.3%; Menin-MLL FL inh = -1.1; ClpP mod = -2.5%; TRPML1 blocker = 19.3; TRPML1 ag = 0.6; gsp antag = -2.3%

More structures.
Structure	gsp agonist	Menin-MLL FL inh	ClpP mod	TRPML1 blocker	TRPML1 ag	gsp antag
C[C@H]1CN([C@@H](C)CO)S(=O)(=O)c2ccc(Br)cc2O[C@H]1CN(C)C(=O)Nc1ccccc1F	-40.4%[inhibitor]	nt	0.0%	6.8	-0.3	nt
CCN=C1SC(C(=O)Nc2cccc(OCC)c2)CC(=O)N1CC (configuration not stated)	-1.1%	-1.3	-1.0%	-5.2	-0.3	-14.7%
CCOC(=O)c1sc(N(Cc2ccccc2)C(=O)COC(=O)c2ccc(O)cc2)nc1C	42.9%	nt	-5.8%	15.7	2.5	-26.3%
Oc1ccc(/C=N/N2CCOCC2)c(O)c1O	-10.9%[15.4 µM]	-12.2	nt	31.1	-0.5	nt
COc1ccc(C2=NCCc3cc(OC)c(OC)cc32)cc1	6.1%	2.9	0.7%	0.9	-0.6	24.3%
CC(/C=C/c1ccccc1)=N\NC(=O)Cn1cncn1	-7.6%	11.7	nt	-6.9	7.0	-4.0%
O=C(Nc1cccc(-c2ccc(N3CCCCC3)nn2)c1)c1ccc(Br)o1	-10.3%	nt	-3.2%	10.2	-0.1	?
CC(=O)OCC1OC(n2c(S)c(C#N)c(-c3ccccc3)c(C#N)c2=O)C(OC(C)=O)C(OC(C)=O)C1OC(C)=O (configuration not stated)	?	nt	-10.5%	10.4	0.7	15.8%
CCCc1cc(=O)[nH]c(SCc2nc(-c3ccc(OCC)cc3)no2)n1	nt	nt	-2.2%	4.0	-0.2	nt
CCNc1ccc(Br)cc(C(=O)/C=C/c2ccc(Cl)cc2)c1=O	?	12.3	0.4%	-2.6	2.3	4.8%
Cc1ccc(C(=O)COC(=O)C(CC(C)C)NC(=O)C2CCC(C)CC2)cc1 (configuration not stated)	nt	nt	-1.1%	8.9	-1.3	nt
CCCCc1cc(=O)oc2cc(OC(C)C(=O)NCc3ccccn3)c(Cl)cc12 (configuration not stated)	-18.7%	-1.4	-18.1%	-6.3	-2.0	-9.3%
O=C(CCS(=O)(=O)Cc1ccccc1)Nc1nnc(C(F)(F)F)s1	1.4%[15.4 µM]	2.2	nt	1.0	-0.5	-9.0%
CCOC(=O)N1CCN(C(=O)CCNS(=O)(=O)c2ccc3c(c2)c(=O)n(C)c(=O)n3C)CC1	7.6%	-0.3	-0.1%	1.0	-0.4	7.5%
COc1ccc(-c2noc(Cn3c(=O)c4ccccc4n(CC(=O)Nc4cccc(C(F)(F)F)c4)c3=O)n2)cc1	nt	nt	?	-11.6	1.3	nt
CCCCCCN1C[C@@H](O)[C@H](n2cc(C3CC3)nn2)C[C@@H]1c1ccccc1	10.2%	nt	-1.0%	36.8	-0.6	nt
CCn1c(SCC(=O)Nc2cccc(NC(C)=O)c2)nnc1C(C)C	-11.8%	0.9	-0.7%	-16.4	1.6	7.1%
CCc1c(C)c2ccc(OC3CCCCC3=O)cc2oc1=O (configuration not stated)	29.1%	-6.1	3.9%	-18.2	1.2	-2.1%

Rows are unselected; any-hit rate near 2.1%.
